Assay outcomes as filed in PubChem BioAssay.
E coli growth – E. coli growth inhibition, primary screen, OD600 | OD600 absorbance (concentration not given with the values) | Escherichia coli growth, 23 h; active compounds read low | 330,000 tested, 0.21% active;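 active = OD600 absorbance below the run mean of sample wells minus 3.6 SD, in any replicate, cut at about 0.56 in these data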;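 also: stock transfer was 300 nL into about 60 µL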
Vif A3G – inhibitors of Vif binding to APOBEC3G peptide, primary screen, biochemical, TR-FRET, GST-Vif 1-94, biotin-A3G peptide, dose response retest (AID 1117319). TR-FRET GST-Vif / biotin-A3G peptide binding; higher % means a stronger effect; test concentration not given here; strong numbers were not always called active. Virion infectivity factor (Human immunodeficiency virus type 1 group M subtype B (isolate …. inhibition, %; hits with a dose series show IC50 in µM. 260,000 tested, 0.57% active;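 active = above the screen mean plus three standard deviations and confirmed in dose response; inconclusive = results disagree or hit not tested in dose response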;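 also: Vif residues 1-94 fused to GST binding biotinylated APOBEC3G peptide 110-148; 0% = full assay without inhibitor and 100% = GST in place of GST-Vif; retest series ran down from 100 µM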
MLL AF4-AF9 inh – inhibitors of AF4 peptide binding to AF9, primary screen, biochemical, AlphaScreen, biotin-AF4 peptide, FLAG-AF9, single point; Protein AF-9 (Homo sapiens), P42568; inhibition, % at 10 µM; 350,000 tested, 0.47% active; AID 651704, 2012;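 active = every replicate reaching a set inhibition limit, whatever the replicate mean, cut at about 25% in these data; inconclusive = mean inhibition reaches that limit but some replicates miss it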;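 also: 0% = plate neutral control median and 100% = total signal loss; the record names both 10 and 1 µM as test concentration; the first replicate is given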
Target sequence (P42568 whole entry, looked up): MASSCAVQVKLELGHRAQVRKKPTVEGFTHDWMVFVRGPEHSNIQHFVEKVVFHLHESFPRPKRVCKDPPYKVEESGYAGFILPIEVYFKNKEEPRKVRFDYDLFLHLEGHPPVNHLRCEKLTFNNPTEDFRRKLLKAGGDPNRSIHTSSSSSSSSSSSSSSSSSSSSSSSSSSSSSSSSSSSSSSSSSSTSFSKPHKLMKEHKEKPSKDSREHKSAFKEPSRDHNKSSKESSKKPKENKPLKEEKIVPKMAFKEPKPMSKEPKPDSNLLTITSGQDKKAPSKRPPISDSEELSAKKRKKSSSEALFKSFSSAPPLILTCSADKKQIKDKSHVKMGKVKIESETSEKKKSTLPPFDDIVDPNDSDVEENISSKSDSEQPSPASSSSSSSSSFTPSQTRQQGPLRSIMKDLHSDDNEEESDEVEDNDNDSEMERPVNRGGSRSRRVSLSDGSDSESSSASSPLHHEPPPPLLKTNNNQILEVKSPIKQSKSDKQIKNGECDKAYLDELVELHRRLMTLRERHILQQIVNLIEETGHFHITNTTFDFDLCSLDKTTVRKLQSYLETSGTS
UCH37 inh – inhibitors of human UCH37 deubiquitinase, primary screen, biochemical, Ub-AMC cleavage, fluorescence | inhibition, % (no concentration beside the values) | Ubiquitin carboxyl-terminal hydrolase isozyme L5 (Homo sapiens), Q9Y5K5 | 330,000 tested, 0.33% active | purified proteasome/UCH37;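 active = mean of two replicates above 20%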;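 also: 0% = compound-free wells with enzyme and 100% = wells lacking proteasome; stock transfer was 100 nL into about 20 µL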
Target sequence (Q9Y5K5 whole entry, looked up): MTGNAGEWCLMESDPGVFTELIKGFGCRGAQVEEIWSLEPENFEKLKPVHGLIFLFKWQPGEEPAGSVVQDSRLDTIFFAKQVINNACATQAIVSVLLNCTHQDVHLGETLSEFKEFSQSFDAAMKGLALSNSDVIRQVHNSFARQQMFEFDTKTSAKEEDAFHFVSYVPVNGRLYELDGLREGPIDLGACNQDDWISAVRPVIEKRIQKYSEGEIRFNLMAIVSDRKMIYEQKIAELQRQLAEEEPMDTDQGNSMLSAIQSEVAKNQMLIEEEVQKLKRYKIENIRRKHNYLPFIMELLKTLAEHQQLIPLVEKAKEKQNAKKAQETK
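assay system = human UCH37 enzyme supplied as purified proteasome complex | amount = proteasome at 0.15 nM in the dispensed enzyme solution | schedule = 30 min compound-proteasome preincubation then 25 min substrate reaction, room temperature | measured by = fluorescence, ex 355 nm, em 460 nm | benchmarks = no-proteasome wells (full inhibition) and compound-free wells (no inhibition)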
RanGTP-Impb inh – inhibitors of RanGTP-importin-beta interaction, primary screen, biochemical, FRET, CFP-Ran, YFP-importin-beta, homogeneous. Ran GTPase (GTP-bound) - importin-beta complex. cell-free CFP-Ran/YFP-importin-beta FRET ratio. inhibition, % (no concentration beside the values). 300,000 tested, 1.1% active. AID 2216, 2009;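 active = most replicates above 15%; inconclusive = exactly half above 15%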;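 also: 0% = DMSO wells and 100% = Ran loaded with GDP instead of GTP; wells of about 40 µL received 100 nL stock; the first replicate is given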
HNF4A DNA FP – change in binding of human HNF4A to DNA, primary screen, biochemical, fluorescence polarization, FITC-DNA; Hepatocyte nuclear factor 4-alpha (Homo sapiens), P41235; AID 1224865, 2016; 1 h; 360,000 tested, 0.3% active; activity change, % at 10 µM; in the data active = activity change above about 30%, passing the limit was not always enough;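 also: controls were the assay level and a saturating level of protein; the project sought stronger binding though the title names inhibitors; some compounds called inactive have numbers as strong as hits; positive values seem to mean higher polarization but the record does not say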
FGF22 binding – binders of human FGF22 protein, primary screen, FGF22 synaptogenesis inhibitor project, biophysical, thermal shift, single point; recombinant FGF22 thermal shift, SYPRO orange fluorescence; percent of sucrose octasulfate shift, DMSO zero; 340,000 tested, 1.5% active; Fibroblast growth factor 22 (Homo sapiens), Q9HCT0; calls only at 9.99 µM;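 active = melting point raised past a set limit in the mean and every replicate; inconclusive = no clear call; three in four hits are not shown here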
Target sequence (Q9HCT0 whole entry, looked up): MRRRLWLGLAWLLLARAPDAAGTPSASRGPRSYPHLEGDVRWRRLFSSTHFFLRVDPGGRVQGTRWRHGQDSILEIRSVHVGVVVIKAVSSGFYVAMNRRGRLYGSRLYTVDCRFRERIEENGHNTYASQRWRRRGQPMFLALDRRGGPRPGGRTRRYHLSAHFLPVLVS
* = called active by the depositor; i = inactive; ? = inconclusive; . = no result given; & = joins results of further samples. The list is partial; the hit share may differ from the screen's.

Results follow in this order: E coli growth | Vif A3G | MLL AF4-AF9 inh | UCH37 inh | RanGTP-Impb inh | HNF4A DNA FP | FGF22 binding
- O=C1C=C(OCCCl)CC(c2cccc(Cl)c2)O1 (stereo unspecified)
 : . | . | -4.7 | . | . | 4.0 | i
- CS(=O)(=O)N1c2ccccc2[C@]2([C@@]34C[C@H]5C(=O)N[C@@H](Cc6ccccc6)C(=O)N5[C@@H]3N(S(C)(=O)=O)c3ccccc34)C[C@H]3C(=O)N[C@@H](Cc4ccccc4)C(=O)N3[C@H]12
 : . | . | 0.5 | -0.3 | -3.1 | . | i
- COC(=O)c1cc(NC(=O)Nc2ccccc2OC)cc(C(=O)OC)c1
 : 0.73 | -1% | . | -3.1 | -1.7 | -5.6 | .
- CC(C)(C)NC(=O)CSc1nnc(NC(=O)CCn2cnc3ccccc3c2=O)s1
 : 0.74 | ? | . | 0.9 | 0.0 | 1.1 | .
- COc1ccc(CNC(=O)CN(C(=O)CCC(=O)Nc2ccccn2)c2cccc(C)c2)cc1
 : 0.67 | 4% | -0.4 | 3.7 | -3.5 | 1.2 | i
- CCOc1ccc(S(=O)(=O)N2CCN(C(=O)c3ccc(C)c(S(=O)(=O)N4CCOCC4)c3)CC2)cc1
 : 0.68 | . | 2.4 | 5.5 | . | 1.2 | i
- Cc1ccc2c(=O)cc(C(=O)NCCc3ccc(S(N)(=O)=O)cc3)oc2c1C
 : 0.65 | -2% | -1.6 | -2.8 | 1.7 | 0.9 | i
- O=C1C=C(O)c2[nH]c(=O)ccc2C1=O
 : . | 27% | -0.8 | . | . | -12 | i
- CC(=O)Nc1cccc(N2C(=O)CC(Cc3ccccc3)C2=O)c1 (stereo unspecified)
 : 0.65 | 9% | . | 2.9 | -2.2 | 1.8 | .
- CC(C)(C)[C@H]1C=C(C(=O)NC2CC2)O[C@@H](OCc2ccc(CO)cc2)C1
 : . | 14% | -1.5&-2.7 | 3.2 | -0.5 | -4.1 | i
- COc1ccc(NC(=O)C2C3C=CC(C3)C2C(=O)NCc2ccccn2)c(OC)c1 (stereo unspecified)
 : 0.75 | 19% | . | 1.2 | . | 2.5 | .
- COc1ccccc1Nc1nc(N)nc(CSC(=S)N2CCCCC2C)n1 (stereo unspecified)
 : 0.68 | . | . | 1.2 | 0.5 | -2.0 | .
- O=C(O)c1ccc(C=NNC(=O)c2cccc3ccccc23)cc1
 : . | -5% | -0.1 | . | . | 0.1 | i
- COc1ccc(C(=O)NCC(=O)N2CC=C(c3ccccc3)CC2)cc1OC
 : 0.67 | . | -1.4 | 0.2 | . | 1.0 | i
- O=C(Nc1ccc(Cl)c(Cl)c1)Nc1ccc(N2CCCC2)c(S(=O)(=O)Nc2ccccc2Cl)c1
 : 0.68 | 14% | . | 1.5 | 0.1 | -0.8 | .
- COc1ccc(/C=C/c2nc3ccccc3n2C)cc1
 : 0.61 | ? | 9.3 | -86 | 7.2 | 1.7 | i
- O=C(O/N=C1\CCCc2ccccc21)c1cccc(Cl)c1
 : . | -5% | . | . | -3.3 | -0.8 | .
- Cc1ccc(C)c(OCC(=O)Nc2ccc3c(c2)OCO3)c1
 : 0.64 | 1% | 1.4 | -0.5 | 4.3 | 0.1 | i
- COc1ccc(-c2nn(CCC#N)cc2C=C(C#N)C#N)cc1
 : 0.67 | ? | -3.6 | 4.3 | 0.2 | 0.1 | i
- Cc1ccnc(NS(=O)(=O)c2ccc(NC(=O)Cc3ccc(Cl)cc3)cc2)n1
 : 0.67 | 0% | -7.2 | 0.6 | 3.2 | 1.5 | i
- Cc1cc(C)n2ncc(C(=O)Nc3ccc4c(c3)OCO4)c2n1
 : 0.78 | 3% | . | 0.6 | -3.2 | 1.0 | .
- COC(=O)c1cc(S(=O)(=O)N2CCN(C(=O)c3ccco3)CC2)cn1C
 : 0.69 | . | -16 | 4.9 | -0.9 | -0.5 | i
- CC(=O)NCCNC(=O)C1Cc2c(-c3cccc(NC(C)=O)c3)ccnc2O1 (stereo unspecified)
 : . | . | 0.4 | . | . | 1.1 | i
- COc1cc(C(=O)N(C)CCOc2ccccc2)ccc1OCC(=O)Nc1cccc(C(F)(F)F)c1
 : 0.72 | . | -4.4 | 5.5 | . | -4.8 | i
- CC(C)CC1Nc2ncnc(N3CCN(c4ccccn4)CC3)c2N(Cc2ccc(Cl)cc2)C1=O (stereo unspecified)
 : 0.81 | . | 1.7&0.7 | 1.8 | . | 0.3&-1.6 | i
- Cc1ccc(C)c(N(C(=O)c2csnn2)C(C(=O)NC2CCCC2)c2cccnc2)c1 (stereo unspecified)
 : 0.7 | . | 0.3 | 6.3 | 0.9 | 0.4 | i
- CCN(CC)C(=O)c1ccc(COc2ccccc2Cl)o1
 : 0.64 | 9% | -2.3 | 1.7 | 0.9 | -0.6 | i
- Cc1c(CN2CCC(n3nccc3NC(=O)CCc3ccccc3)CC2)cnn1C
 : . | . | -1.1 | . | 2.3 | 1.1 | i
- C/C(=N/O)c1ccc(N2C(=O)C3C4C=CC(C3C2=O)C2C3C(=O)N(c5ccc(/C(C)=N/O)cc5)C(=O)C3C42)cc1 (stereo unspecified)
 : . | 2% | -1.3 | . | . | . | i
- CC(=O)Nc1ccc2c(c1)N(C(C)=O)c1ccccc1CC2
 : 0.67 | . | -0.1 | 4.3 | -3.4 | 1.7 | i
- N#CCSc1nccc(/C=C/c2ccccc2)n1
 : 0.71 | -4% | 12 | 6.2 | 0.5 | 0.6 | i
- CCOc1ccc(OCC)c(S(=O)(=O)NCc2ccc3c(c2)OCO3)c1
 : 0.7 | 70% | -16 | 2.0 | 2.5 | 0.8 | i
- O=C(NCCCN1CCOCC1)c1cccc(S(=O)(=O)Nc2cc(Cl)ccc2Cl)c1
 : 0.72 | 3% | -2.2 | 2.7 | 2.7 | -0.5 | i
- CN1N=C(C(=O)Nc2ccc3c(c2)CCC3)CCC1=O
 : 0.72 | -3% | -0.2 | 4.9 | 1.2 | -0.2 | i
- CC(C)n1nnnc1SCC(=O)Nc1ccccc1F
 : 0.7 | . | 6.4 | 5.8 | 2.8 | -0.6 | i
- Cc1ccsc1C(=O)N/N=C/C=C/c1ccccc1[N+](=O)[O-]
 : . | 11% | . | . | -0.3 | -3.0 | .
- COc1ccc(C(C#N)CCC2OCCO2)cc1OC (stereo unspecified)
 : 0.66 | . | -6.6 | 5.0 | . | 4.9 | i
- CCCCn1c(SCC(=O)NCc2ccco2)nc2cc(S(N)(=O)=O)ccc21
 : 0.74 | 11% | . | 2.1 | 3.8 | -2.8 | .
- Cc1cccc(OCC(=O)Nc2nnc(S(=O)(=O)N3CCC(C)CC3)s2)c1
 : 0.7 | . | -0.1 | 7.2 | 3.2 | 1.8 | i
- CCC(=O)N1CCN(c2ccccc2NC(=O)COc2cc(C)ccc2C(C)C)CC1
 : 0.69 | 7% | 0.9 | 1.5 | 1.6 | 4.2 | i
- CCOC(=O)C1=C(C)NC(=O)C1CC(=O)O (stereo unspecified)
 : 0.72 | -7% | . | 3.0 | -3.8 | 2.0 | .
- COc1ccccc1CNC(=O)COC(=O)c1cc2ccccc2o1
 : 0.73 | -15% | 0.2 | -0.2 | . | -0.9 | i
- CCOc1ccccc1NC(=O)CCNC(=O)N1CC(=O)Nc2ccccc21
 : . | 1% | -0.4 | . | . | 3.5 | i
- CS(=O)(=O)c1cccc(C(=O)NCc2ccc(F)cc2)c1
 : 0.74 | 2% | . | -6.6 | . | 1.4 | .
- CN(C(=O)CSc1n[nH]c(N)n1)C1CCCCC1
 : 0.65 | . | -1.0 | -2.4 | . | -2.0 | i
- CC(C)(C)c1ccc(-c2noc(CNC(=O)c3ccco3)n2)cc1
 : 0.54 | 2% | 0.1 | -1.8 | -1.5 | 2.9 | i
- Cc1cccc(CSc2nc(N)c(C#N)c(-c3cccs3)c2C#N)c1
 : 0.77 | -9% | . | -6.9 | 5.4 | 1.5 | .
- COc1ccc(-c2ccc3oc(-c4ccc(OC)cc4)c(-c4ccc(OC)cc4)c3c2)cc1
 : 0.67 | . | . | -67 | 0.1 | 1.4 | i
- Cc1cc(C)c(S(=O)(=O)NCc2cccs2)cc1C
 : 0.69 | -6% | -0.1 | 1.8 | 2.3 | 4.0 | i
- COc1ccc2c(c1)cc1c(=O)n(CC(=O)NCCCOC(C)C)nc(C)n12
 : 0.71 | 2% | -4.2 | -30 | 5.0 | -2.8 | i
- Cc1ccc2c(c1)NC(=O)C(N1CCOCC1)(C(F)(F)F)O2 (stereo unspecified)
 : 0.73 | 20% | . | 0.7 | -2.1 | -0.6 | .
- O=S(=O)(Cc1nnnn1-c1ccccc1)c1ccc(F)cc1
 : 0.71 | 0% | -1.1 | -2.6 | -2.6 | 3.5 | i
- CNC(=S)N/N=C/c1ccc(N(C)C)cc1
 : . | . | -9.8 | . | 1.6 | -4.8 | i
- CCOCCCN(C(=O)CNC(=O)c1ccco1)C(C(=O)NC1CCCC1)c1cccc(OC)c1 (stereo unspecified)
 : 0.71 | . | -3.7 | 2.7 | 0.7 | 2.3 | i
- Cc1cc(-c2c(C)[nH]n(-c3ccccc3)c2=O)n(-c2ccccc2)n1
 : 0.73 | -2% | . | 1.7 | 0.1 | 3.7 | .
- COc1ccc(S(=O)(=O)N2CCC(C(=O)NCCC(=O)NCc3cccnc3)CC2)cc1
 : . | 0% | -5.9 | . | . | -1.1 | i
- COc1ccc(-c2c3c(=O)n(C)c(=O)n(C)c3cn2-c2cc(OC)ccc2OC)cc1
 : 0.69 | 25% | . | -8.2 | 2.3 | -1.5 | .
- CCc1cc(=O)oc2cc(C)cc(OC(C)C(=O)NCCN3CCOCC3)c12 (stereo unspecified)
 : 0.69 | . | 0.0 | -50 | 1.8 | 0.4 | i
- CC(CC(=O)N1CCN(S(=O)(=O)c2ccc(Cl)cc2)CC1)n1cncn1 (stereo unspecified)
 : 0.69 | . | 1.6 | 1.6 | -3.7 | -4.1 | i
- COc1ccc(N(CC(=O)NC(C)(C)C)C(=O)CCC(=O)Nc2nccs2)c(OC)c1
 : 0.66 | . | 2.4 | 0.8 | 2.2 | 1.8 | i
- CCn1c(COc2cccc(C)c2)nnc1SCC(=O)N1CCCC1
 : 0.69 | -1% | . | 4.4 | -1.0 | 1.9 | .
- C=CCn1c(CNC(=O)c2cccs2)nnc1SCC(=O)c1ccc(Br)cc1
 : 0.69 | 2% | . | 4.1 | -0.1 | 0.3 | .

A draw from above in order of molar mass, rising:
Results follow in this order: E coli growth | Vif A3G | MLL AF4-AF9 inh | UCH37 inh | RanGTP-Impb inh | HNF4A DNA FP | FGF22 binding
- CCOC(=O)C1=C(C)NC(=O)C1CC(=O)O (stereo unspecified)
 : 0.72 | -7% | . | 3.0 | -3.8 | 2.0 | .
- CCOc1ccc(OCC)c(S(=O)(=O)NCc2ccc3c(c2)OCO3)c1
 : 0.7 | 70% | -16 | 2.0 | 2.5 | 0.8 | i
- C=CCn1c(CNC(=O)c2cccs2)nnc1SCC(=O)c1ccc(Br)cc1
 : 0.69 | 2% | . | 4.1 | -0.1 | 0.3 | .
